# StopGo RLuc – Primary qHTS Assay for Foot and Mouth Disease Virus Antivirals against NCGC Sytravon and CBC Compound Libraries: Renilla Luciferase Signal; hit rate 0.32% among 120,000; Potency, µM (highest dose often 57.5 µM), for inactives: top-dose signal change, negative = less light; HEK cells with a luciferase reporter of 2A StopGo recoding; active means well fitted falling curve with a large enough effect; inconclusive means small, poorly fitted or top-dose-only effect; inactive means no such curve, though single readings can be large or run the other way; further: nearly all actives have a fitted effect of over 55% in size; overnight with compound
# 2A firefly – Primary qHTS Assay for Foot and Mouth Disease Virus Antivirals against NCGC Sytravon and CBC Compound Libraries: Firefly Luciferase Signal; HEK cells with a luciferase reporter of 2A StopGo recoding; Potency, µM (highest dose often 57.5 µM), inactives show at the highest dose signal change, negative = less light; hit rate 0.23% among 120,000; AID 1745856, 2022; active = well fitted falling curve with a large enough effect; inconclusive = small, poorly fitted or top-dose-only effect; inactive = no such curve, though single readings can be large or run the other way; further: nearly all actives have a fitted effect of over 60% in size; overnight with compound
# The depositor's hits bear a star; u = inconclusive; & = joins results of further samples; [ ] = another dose, or the depositor's remark. On the % scale 0 is the no-effect control and ±100 the full control effect; potency means the concentration at half of the fitted maximal effect. Not all compounds are listed; count on the stated rates, not on these rows.
SMILES,StopGo RLuc,2A firefly
CC1CCN(C(=O)c2cc3c(=O)n(C)c4cc(Cl)ccc4c3s2)CC1,4%,-17%
COc1ccccc1-c1cc(=O)c2cc(C)ccc2o1,230%[activator],244%[activator]
O=C(c1ccc(C(F)(F)F)cc1)N1CCC(c2nc(-c3ccc(S(=O)(=O)N4CCCC4)cc3)no2)CC1,-13%,-15%
NC(=O)c1ccc(NS(=O)(=O)c2ccccc2[N+](=O)[O-])cc1,82%[activator],8%
CS(=O)(=O)Nc1ccc(-c2csc(N3CCCC3)n2)cc1,8%,164%[activator]
O=S(=O)(Nc1cccc(-c2ccc(N3CCCCC3)nn2)c1)c1cccc(F)c1,134%[activator],92%[activator]
O=C(CCCCCn1c(=O)c2sccc2n(CC(=O)Nc2cc(C(F)(F)F)ccc2Cl)c1=O)NCc1ccccc1Cl,-8%,22%
COc1ccccc1/C=C/C=C(/C#N)C(=O)Nc1cc(C(F)(F)F)ccc1Cl,-4%,-9%
Cc1ccc(-c2nc3ccccc3[nH]2)cc1NC(=O)COc1ccc(Cl)cc1Cl,-9%,-1%
Clc1cccc(N2CCN(c3nc4ccccc4n4nnnc34)CC2)c1,-6%,0%
COc1ccc(Cl)cc1Nc1ncnc2c1c(-c1ccccc1)cn2-c1cccc(C(F)(F)F)c1,-3%,14%
Cc1ccc2cccc(NC(=O)COc3ccc(Cl)cc3)c2n1,-9%,-6%
Cc1nc2nc(C)c(CCC(=O)NCCc3ccccc3)c(C)n2n1,-6%,55%[activator]
COC(=O)c1ccc(C(=O)NCC2(c3ccccc3)CC2)cc1,-1%,128%[activator]
Cc1ccc(CNC2CC2)cc1,4%,2%
CCN(CCNC(=O)c1cc2ccccc2oc1=O)c1cccc(C)c1,31%,0%
CC(C)Oc1ccc(CNC(=O)c2ccc3nc(C(C)C)oc3c2)cc1,-1%,52%[activator]
Cc1ccc(Cl)cc1NC(=O)CSc1nc2ccccc2nc1Cc1ccccc1,-13%,-23%
COC(=O)c1ccc(OCC2c3cc(OC)c(OC)cc3CCN2C(=O)Cc2ccccc2)cc1 (stereo not given),28%,-6%
Cc1cccc2c1-c1sc(C(=O)NCCc3ccc(Cl)cc3)cc1CO2,0%,0%
Cc1ccccc1-c1nc2cc(NC(=O)COc3ccc(F)cc3)ccc2o1,9%&10%,143%&58%[activator]
CC1CCc2c(sc(NC(=O)c3cc(-c4cccc(Cl)c4)on3)c2C(N)=O)C1 (stereo not given),5%,-2%
O=C(Nc1ccc(Cl)cc1)c1nc2ccccc2nc1N1CCOCC1,18%,5%
Cc1ccc2nc(SC(Cc3cc(Cl)ccc3Cl)C(=O)O)[nH]c2c1 (stereo not given),-2%,-17%
CC(C)(/C=N/O)/[N+]([O-])=C/c1ccc(Cl)cc1Cl,-3%,15%
Cc1ccc(-c2cnc(SCC(=O)Nc3ccc(Br)cc3)o2)cc1C,-16%,-11%
CCOc1ccccc1NC(=O)Cn1nc(N2CCN(c3ccccc3)CC2)ccc1=O,18%,-11%
COc1ccc(-c2nc(CSCC(=O)NCc3cccnc3)c(C)o2)cc1OC,1%,7%
Cc1cccc(NC(=O)CSc2ncc3c(n2)-c2ccc(Cl)cc2N(C)S3(=O)=O)c1,-6%,5%
CCN(c1ccc(OC)cc1)S(=O)(=O)c1nnc(NC(=O)c2ccccc2Cl)s1,20%,-3%
O=C(NC1CC(=O)N(c2ccccc2)C1)c1cccs1 (stereo not given),1%,-20%
CC(C)CCn1nc(C(=O)OCC(=O)NC(C)c2ccccc2)c2ccccc2c1=O (stereo not given),15%,10%
Cc1c(-c2ccccc2)nc2ccccc2c1C(=O)OCC(N)=O,-7%,-3%
Cc1ccc(CCNC(=O)Cn2ncc3c([nH]c4ccc(C)cc43)c2=O)cc1,-5%,18%
Cc1nn(C(=O)c2ccccc2F)c(C)c1S(=O)(=O)N1CCCCCC1,-4%,-7%
Cc1cccc(-c2nc(CSc3nc4c(c(=O)[nH]3)CCC4)c(C)o2)c1,19%,17%
CCCc1cnc2c(c1SCC(=O)Nc1cccc(C)c1C)c(=O)n(C)c(=O)n2C,-8%,-8%
CCC(=O)OCc1cnc(C)c2oc(=O)c(C(=O)Nc3ccc(CC)cc3)cc12,-14%,-7%
Cc1ccc(NC(=O)CC2CC3CCC2C3)cc1 (stereo not given),-3%[1.06 µM],197%[activator]
Cc1nc2ccccc2nc1CN1C(=O)NC2(CCCCCC2)C1=O,u,u
Cc1c(-c2ccccc2)oc2c(C(=O)NC(C)C)cccc2c1=O,7%,14%
CCOC(=O)c1cccc(NC(=O)N2CC(CC)Sc3ccccc32)c1 (stereo not given),-1%,12%
O=C(NCC(=O)N1CCN(c2cccc(Cl)c2)CC1)NCc1ccc(F)cc1,14%,25%
CCCCNC(=O)CN1C(=O)COc2ccc(S(=O)(=O)N3CCCC3)cc21,-9%,-16%
Cn1nc(CC(=O)Nc2cccc(Cl)c2)c2ccccc2c1=O,7.9µM*,8.9µM*
COc1ccc(C(=O)Nc2oc3ccc(Cl)cc3c(=O)c2-c2ccc3c(c2)OCO3)cc1OC,-10%,19%
CCOc1cc(C2C(C(=O)OC)=C(C)NC3=C2C(=O)c2ccccc23)c(Br)cc1OC (stereo not given),-11%,-9%
COC(=O)c1cccc(-n2c(CCC(=O)O)ccc2-c2ccc(OC)cc2)c1,39%[activator],49%[activator]
CCOc1ccccc1NC(=O)NC1CCN(c2nc(C)cc(C)n2)CC1,-4%,4%
Cc1cccc(C)c1NC(=O)CN1CCN(Cc2csc(-c3cccc(Br)c3)n2)CC1,u,-91%
Cc1onc(-c2c(Cl)cccc2Cl)c1C(=O)N[C@@H]1C(=O)N2[C@@H]1SC(C)(C)[C@@H]2C(=O)O,-2%,-2%
CCOc1ccc(C(=O)c2cn(CC(=O)Nc3ccc4c(c3)OCCO4)c3ccc(OC)cc3c2=O)cc1,6%,7%
O=C(O)C1COCCO1 (stereo not given),-5%,0%
C=CCn1c(SCc2coc(-c3ccc(C)cc3C)n2)nnc1C1CCS(=O)(=O)C1 (stereo not given),-11%,15%
COc1cccc(NC(=O)Cn2nc(C)c3c(C)n(-c4ccccc4)nc3c2=O)c1,-17%,-7%
C/C=C/C=C/C(=O)OCc1nc2c(c(=O)[nH]c(=O)n2CCCC)n1C,-5%,2%
CCn1c2ccccc2c2cc(CN3CCN(Cc4ccccc4C)CC3)ccc21,2%,0%
Cc1ccc(CN(C)C(=O)c2cc(Br)ccc2O)c(C)c1,171%[activator],u
O=C(CSc1nnc(-c2ccccc2F)n1-c1ccccc1)NC(=O)NCc1ccccc1,15%,-9%
Cc1ccccc1CNC(=O)C(=O)NCC(c1ccc2c(c1)OCO2)N1CCOCC1 (stereo not given),-14%,-19%

# (more compounds)
SMILES,StopGo RLuc,2A firefly
CC(=O)NCCNc1nc2c(-c3cccc(C)c3)nnn2c2ccc(Cl)cc12,-7%,26%
Cn1cc(S(=O)(=O)c2ccccc2)c(=O)c2cc(F)c(N3CCCCC3)cc21,-5%,-8%
CCc1ccc(NC(=O)C(=O)NCCc2sc(-c3ccc(OC)c(OC)c3)nc2C)cc1,-5%,46%[activator]
COc1cccc(NC(=O)CSc2nnc3[nH]c(=O)cc(-c4ccccc4)n23)c1,-9%,-10%
CCOc1ccc(NC(=O)CCS(=O)(=O)c2ccc3c(c2)n(C)c(=O)c(=O)n3C)cc1,-9%,0%
CSc1ncc(Cl)c(C(=O)Nc2ccc(S(=O)(=O)N3CCC(C)CC3)cc2)n1,65%[activator],u
CCOC(=O)C(NC(=O)c1ccccc1)(OC(C)C)C(F)(F)F (stereo not given),13%,6%
O=C(c1nn(Cc2ccccc2)c(=O)c2ccccc12)N1CCN(CCOc2ccccc2)CC1,0%,-8%
CN(Cc1ccccc1Br)C(=O)CSc1cc(C(=O)NC2CC2)c2ccccc2n1,26%,12%
CCCCCCCC(=O)NCCCNC(=O)CCCCCCC,-4%,5%
O=C(Cc1cccc([N+](=O)[O-])c1)NCc1nc2cccnc2n1Cc1ccc(F)cc1,-15%,-6%
COc1ccc(-c2cc(C(=O)Nc3ccc(C#N)cc3)no2)cc1,-10%,-11%
Cc1ccc(Cl)cc1N1CCN(CC(=O)NC2CCCC2)CC1,u,u
CCNc1c(NC(=O)NCCc2ccccc2)c(=O)oc2ccccc12,-6%,2%
COc1ccc(Oc2coc3cc(OCc4ccccc4Cl)ccc3c2=O)cc1,-4%,3%

# Part of the list above in order of SMILES length, smallest number first:
SMILES,StopGo RLuc,2A firefly
CCNc1c(NC(=O)NCCc2ccccc2)c(=O)oc2ccccc12,-6%,2%
COc1ccc(Oc2coc3cc(OCc4ccccc4Cl)ccc3c2=O)cc1,-4%,3%
CN(Cc1ccccc1Br)C(=O)CSc1cc(C(=O)NC2CC2)c2ccccc2n1,26%,12%

# Following part.
SMILES,StopGo RLuc,2A firefly
O=C(/C=C/Nc1ccc(Oc2ccccc2)cc1)c1ccc(Br)cc1,7%,120%[activator]
CCOc1ccc(NC(=O)c2cnc(N3CCCC3)nc2C)cc1,-10%,-11%
COc1ccc(-n2nc(C(=O)NCC(=O)NC3CCCCCC3)c3ccccc3c2=O)c(OC)c1,23%,30%[activator]
CC(NC(=O)CSc1nncn1-c1ccccc1)c1cccc2ccccc12 (stereo not given),-6%,-15%
O=C(/C=C/N(c1ccccc1)c1ccccn1)C(F)(F)F,-1%,26%
Cc1ccc2c(c1)C(CS(=O)(=O)NCc1ccc(F)cc1)NC2 (stereo not given),111%[activator],59%[activator]
COc1ccc(Cc2nn3c(C(C)C)nnc3s2)cc1OC,18%,26%
CCC(=O)N1CCc2cc(CNS(=O)(=O)c3ccc(Br)s3)ccc21,92%[activator],5%
CCCCn1nc(C(=O)NCc2ccc(Cl)cc2)c2ccccc2c1=O,u,u
CCOC(=O)c1ccc(NC(=O)N(C)Cc2nc(-c3ccccc3C)oc2C)cc1,18%,16%
Cc1cc(C)c(/C=C/c2onc(C)c2S(=O)(=O)N2CCC(C(=O)N3CCN(c4ccccc4)CC3)CC2)c(C)c1,-1%,-16%
Cc1c(NC(=O)Cc2ccc(Cl)cc2)cccc1-c1nc2cccnc2s1,-15%,6%
CCOc1ccc(NC(=O)Nc2c(NC3CCCC3)c3ccccc3oc2=O)cc1,-1%,7%
CC(=O)c1ccc(N2CCN(C(=O)CCCn3c(=O)[nH]c4ccsc4c3=O)CC2)cc1,5%,3%
CCN(CC)S(=O)(=O)c1cc(C(=O)Nc2cc(Cl)ccc2N2CCN(C)CC2)ccc1Cl,4%,6%
Cc1ccc2cccc(NC(=O)C(C)Oc3ccc(Cl)cc3Cl)c2n1 (stereo not given),9%,0%
CC(C)(C)c1ccc(-c2nc(C#N)c(NCc3ccco3)o2)cc1,12%,121%[activator]
CC(C)CC(=O)Nc1nn2c(C(C)C)nnc2s1,-2%,12%
CC1C(=O)CCN(C)C1C (stereo not given),-19%,-11%
COc1ccc(-c2c(C)c3ccc(OC)cc3oc2=O)cc1,16%,0%
Cc1c(CC(=O)NCC(c2ccccc2)c2ccccc2)c(=O)oc2cc(O)ccc12,79%[activator],8%
COc1ccc(-c2cnc(C)o2)cc1S(=O)(=O)Nc1ccc(NC(C)=O)cc1,41%[activator],-10%
CCOc1ccc(Nc2ncnc3c2nc2n3CCCCC2)cc1,u,0%
CC(C)CCNC(=O)c1cc(-c2cccnc2)nc2ccc(S(=O)(=O)N3CCC(C)CC3)cc12,8%,-8%
CN(Cc1ccc(Cl)c(Cl)c1)C(=O)c1cc2ccccc2oc1=O,155%[activator],27%
O=C(Nc1cccc(F)c1)[C@H](CSCc1ccccc1)N1Cc2ccccc2C1=O,185%[activator],-4%
CN(C)S(=O)(=O)c1ccc(Cl)c(C(=O)NCc2ccnc(N3CCCC3)c2)c1,0%,7%
COc1cccc(CNC(=O)Cn2c(=O)nc(-c3ccccc3F)c3cc(Cl)ccc32)c1,-8%,-6%
CCn1c(CNC(C)c2ccccc2)nc2cc(S(=O)(=O)N3CCOCC3)ccc21 (stereo not given),9%,10%

# Structural class, the compounds so far with an aryl thioether with sulfur outside any ring
SMILES,StopGo RLuc,2A firefly
Cc1ccc(Cl)cc1NC(=O)CSc1nc2ccccc2nc1Cc1ccccc1,-13%,-23%
Cc1ccc2nc(SC(Cc3cc(Cl)ccc3Cl)C(=O)O)[nH]c2c1 (stereo not given),-2%,-17%
Cc1ccc(-c2cnc(SCC(=O)Nc3ccc(Br)cc3)o2)cc1C,-16%,-11%
Cc1cccc(NC(=O)CSc2ncc3c(n2)-c2ccc(Cl)cc2N(C)S3(=O)=O)c1,-6%,5%
Cc1cccc(-c2nc(CSc3nc4c(c(=O)[nH]3)CCC4)c(C)o2)c1,19%,17%
CCCc1cnc2c(c1SCC(=O)Nc1cccc(C)c1C)c(=O)n(C)c(=O)n2C,-8%,-8%
C=CCn1c(SCc2coc(-c3ccc(C)cc3C)n2)nnc1C1CCS(=O)(=O)C1 (stereo not given),-11%,15%
O=C(CSc1nnc(-c2ccccc2F)n1-c1ccccc1)NC(=O)NCc1ccccc1,15%,-9%
COc1cccc(NC(=O)CSc2nnc3[nH]c(=O)cc(-c4ccccc4)n23)c1,-9%,-10%
CSc1ncc(Cl)c(C(=O)Nc2ccc(S(=O)(=O)N3CCC(C)CC3)cc2)n1,65%[activator],u
CN(Cc1ccccc1Br)C(=O)CSc1cc(C(=O)NC2CC2)c2ccccc2n1,26%,12%
CC(NC(=O)CSc1nncn1-c1ccccc1)c1cccc2ccccc12 (stereo not given),-6%,-15%

# Screening data (PubChem)
